# HNF4A DNA FP: change in binding of human HNF4A to DNA, primary screen, biochemical, fluorescence polarization, FITC-DNA | Hepatocyte nuclear factor 4-alpha (Homo sapiens), P41235 | 1 h | activity change, % at 10 µM | actives 0.3% (n = 360,000) | AID 1224865, 2016; in the data active means activity change above about 30%, passing the limit was not always enough;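 further: controls were the assay level and a saturating level of protein; the project sought stronger binding though the title names inhibitors; some compounds called inactive have numbers as strong as hits; positive values seem to mean higher polarization but the record does not say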
# Target sequence (P41235 whole entry, looked up): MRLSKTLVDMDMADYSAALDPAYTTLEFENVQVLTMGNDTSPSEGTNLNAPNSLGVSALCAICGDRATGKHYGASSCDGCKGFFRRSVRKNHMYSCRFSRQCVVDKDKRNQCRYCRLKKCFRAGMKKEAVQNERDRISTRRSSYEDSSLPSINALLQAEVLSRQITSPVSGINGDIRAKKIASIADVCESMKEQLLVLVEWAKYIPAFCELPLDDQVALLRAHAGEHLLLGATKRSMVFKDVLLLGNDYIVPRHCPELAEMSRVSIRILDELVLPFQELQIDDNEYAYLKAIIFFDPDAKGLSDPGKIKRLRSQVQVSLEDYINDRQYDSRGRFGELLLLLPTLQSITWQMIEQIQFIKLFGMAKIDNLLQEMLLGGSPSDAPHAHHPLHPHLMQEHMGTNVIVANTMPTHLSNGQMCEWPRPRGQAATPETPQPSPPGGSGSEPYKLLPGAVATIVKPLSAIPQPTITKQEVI
# LANA-H2A inh: blockers of LANA interaction with H2A/H2B – biochemical, FP readout, HTS, primary screen | Protein LANA1 (Human herpesvirus 8 type P (isolate GK18)), Q9QR71 | cell-free LANA-H2A/H2B peptide, fluorescence polarization | inhibition, % (concentration not given with the values) | actives 0.6% (n = 320,000); in the data active means inhibition mostly above about 10%, no sharp cut-off; inactive means mostly below about 6.7%;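 further: stock transfer was 7.5 nL into about 10 µL; 0% = median of vehicle wells and 100% = median of positive control wells; one replicate is shown; the record names a cut of 25% in any replicate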
# UCH37 inh: inhibitors of human UCH37 deubiquitinase, primary screen, biochemical, Ub-AMC cleavage, fluorescence. purified proteasome/UCH37. actives 0.33% (n = 330,000). AID 588478, 2011. inhibition, % (test concentration not listed). Ubiquitin carboxyl-terminal hydrolase isozyme L5 (Homo sapiens), Q9Y5K5;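 active means mean of two replicates above 20%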;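 further: 0% = compound-free wells with enzyme and 100% = wells lacking proteasome; stock transfer was 100 nL into about 20 µL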
# Target sequence (Q9Y5K5 whole entry, looked up): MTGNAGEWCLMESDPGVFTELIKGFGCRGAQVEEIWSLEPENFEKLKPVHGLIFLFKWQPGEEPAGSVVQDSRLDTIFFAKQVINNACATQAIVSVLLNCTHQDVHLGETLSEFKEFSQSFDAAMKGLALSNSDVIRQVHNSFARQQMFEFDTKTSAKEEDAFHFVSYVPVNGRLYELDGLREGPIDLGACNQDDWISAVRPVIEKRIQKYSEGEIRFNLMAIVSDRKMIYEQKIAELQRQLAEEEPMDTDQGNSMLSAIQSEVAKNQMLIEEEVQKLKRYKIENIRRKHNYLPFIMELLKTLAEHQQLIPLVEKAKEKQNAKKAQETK
#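 Test system – human UCH37 enzyme supplied as purified proteasome complex · Incubation – 30 min preincubation with enzyme, 25 min cleavage at room temperature · Detection – AMC fluorescence from Ub-AMC cleavage, excitation 355 nm, emission 460 nm · Benchmarks – no-proteasome wells (full inhibition) and compound-free wells (no inhibition)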
# A1 inh: caspase 3/7 activation in MEF A1-2A-BIM cells, primary screen, A1 inhibitor project, cell-based, luminescence, HTS. actives 0.066% (n = 330,000). Caspase-Glo 3/7 luminescence, 3 h; percent of clofoctol response, vehicle zero. caspase activation, % (no concentration beside the values);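 active means over half of replicate activation scores above 10%, or exactly half above 10 with the replicate mean above 10; inconclusive means replicate mean below 10 yet half the replicates above 10; inactive means over half of replicates below 10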;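 further: wells of about 30 µL received 50 nL stock; many hits fall short of the cut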
# Vif A3G: inhibitors of Vif binding to APOBEC3G peptide, primary screen, biochemical, TR-FRET, GST-Vif 1-94, biotin-A3G peptide, dose response retest (AID 1117319). TR-FRET GST-Vif / biotin-A3G peptide binding; higher % means a stronger effect; test concentration not given here; strong numbers were not always called active. inhibition, %, or IC50 in µM where a hit was titrated. actives 0.57% (n = 260,000);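 active means above the screen mean plus three standard deviations and confirmed in dose response; inconclusive means results disagree or hit not tested in dose response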;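 further: Vif residues 1-94 fused to GST binding biotinylated APOBEC3G peptide 110-148; 0% = full assay without inhibitor and 100% = GST in place of GST-Vif; retest series ran down from 100 µM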
# B2AR ag: beta2AR agonists driving receptor internalization, primary screen, cell-based, FAP fluorogen, flow cytometry. response, % (no concentration beside the values). Am2.2-beta2AR cells; reference of the scale not given here. actives 0.43% (n = 340,000);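 active means response above a set limit, near 3 SD of response in nonfluorescent compounds, cut at about 42% in these data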;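 further: stock transfer was 100 nL into about 11 µL; a reference agonist was the positive control; negative values mostly stem from fluorescent compounds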
# Ecoli growth: E. coli growth inhibition, primary screen, OD600; Escherichia coli growth, 23 h; hits give low values; OD600 absorbance (test concentration not listed); actives 0.21% (n = 330,000); AID 1053175, 2014;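 active means OD600 absorbance below the run mean of sample wells minus 3.6 SD, in any replicate, cut at about 0.56 in these data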;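 further: stock transfer was 300 nL into about 60 µL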
# An asterisk follows results filed as active; ? = inconclusive; nt = no result given; & = joins results of further samples.
# A first look (three entries):
SMILES,HNF4A DNA FP,LANA-H2A inh,UCH37 inh,A1 inh,Vif A3G,B2AR ag,Ecoli growth
COc1cccc(C(=O)OCC(=O)NCc2ccc3c(c2)OCO3)c1OC,6.3,2.5,1.3,0.0,3.2%,3.2,0.676
CN(C(=O)Cn1nnc(-c2ccc(F)cc2)n1)C1CCS(=O)(=O)C1 (stereo unspecified),-1.5,-13.7,-1.1,0.3,-5.1%,-0.6,0.684
O=[N+]([O-])c1nn(-c2ccc3c(c2)OCCO3)n(O)c1=NC1CCCCC1,-3.6,9.2,4.3,0.3,-2.2%,-7.4,0.685

# This part in full (from the top)
SMILES,HNF4A DNA FP,LANA-H2A inh,UCH37 inh,A1 inh,Vif A3G,B2AR ag,Ecoli growth
COc1cccc(C(=O)OCC(=O)NCc2ccc3c(c2)OCO3)c1OC,6.3,2.5,1.3,0.0,3.2%,3.2,0.676
CN(C(=O)Cn1nnc(-c2ccc(F)cc2)n1)C1CCS(=O)(=O)C1 (stereo unspecified),-1.5,-13.7,-1.1,0.3,-5.1%,-0.6,0.684
O=[N+]([O-])c1nn(-c2ccc3c(c2)OCCO3)n(O)c1=NC1CCCCC1,-3.6,9.2,4.3,0.3,-2.2%,-7.4,0.685
CC(C)(C)NC(=O)CSc1nnc(Cc2ccccc2)n1CC1CCCO1 (stereo unspecified),2.3,0.0,2.1,0.7,5.8%,2.4,0.678
OCCC1CN(Cc2cnc(-c3ccc(Cl)cc3)nc2)CCN1C1CCCC1 (stereo unspecified),0.9,-6.3,2.6,0.3,-1.4%,8.2,0.629
O=C(COc1ccc(Cl)cc1Cl)Nc1ccccc1F,-1.9,0.2,5.3,-5.0,nt,-3.4,0.716
CC(=O)c1cccc(NC(=O)c2ccc3c(c2)OCO3)c1,-2.7,-2.1,-1.5,-6.3,nt,4.7,0.631
COc1ccc(N2CCN(C(=O)COC(=O)c3oc4ccc(OC)cc4c3C)CC2)cc1,0.4,1.8,-26.8,-0.2,1.7%,9.7,0.689
COc1ccc(C(=O)NCCc2cccc(Cl)c2)cc1OC1CCN(C(C)=O)CC1,1.1,-1.0,5.2,-0.9,nt,-0.9,0.704
CC1CCCN(CC(=O)NC(=O)NC2CCCCC2)C1 (stereo unspecified),-2.0,-5.7,1.6,0.5,?,3.8,0.692
O=C(CC(O)(C(F)(F)F)C(F)(F)F)Nc1ccc(Cl)c(Cl)c1,-1.1,-5.7,6.4,0.0,21.3%,37.0,0.329*
CCOc1cccc(NC(=O)CSc2nncn2N)c1,0.5,-4.6,2.4,-0.9,1.7%,2.1,0.678
Cc1ccc(-c2noc(CCC(=O)N3CCCc4ccccc43)n2)cc1,-5.0,15.8,nt,-0.5,5.0%,-0.7,0.685
COCCNc1nc(N2CCCCC2)c2cnn(C)c2n1,-2.1,2.3,2.1,0.1,-6.7%,-0.7,0.706
CCOC(=O)c1ccc([N+](=O)[O-])c(CS(=O)(=O)c2ccc(Cl)cc2)c1,-0.1,1.1,0.7,0.1,-1.4%,10.3,0.684
CCOC(=O)c1nn(-c2cccc(OC)c2)c(-c2ccccc2)c1C(=O)c1ccccc1,-0.7,-1.0,5.2,0.4,9.4%,2.1,0.74
O=C(CSc1nc(Nc2ccccc2)nc(N2CCOCC2)n1)Nc1cc(Cl)ccc1O,2.8,4.3,5.3,0.4,nt,13.8,0.701
CCN1CCN(c2ccc(NC(=O)c3ccc(Cl)c(S(=O)(=O)N4CCCC4)c3)cc2)CC1,-2.6,nt,3.9,nt,16.3%,3.1,0.698
COCOc1cc(O)c(C(=O)/C=C/c2ccc(OCOC)c(OCOC)c2)c(OCOC)c1,0.5,-3.7,4.1,-0.5,nt,nt,0.729
CCNCc1cc(Cl)c(OCc2ccccc2)c(OCC)c1,3.5,-1.0,2.9,-1.5,-2.7%,6.0,0.634
CC(=O)Nc1ccccc1OCC(=O)c1ccc2c(c1)OCO2,4.2,-1.3,3.4,-1.5,3.8%,0.7,0.691
Cc1ccc2c(c1)C(N1CCCC1=O)CC(c1ccco1)N2 (stereo unspecified),0.2,1.1,-7.3,-14.3,8.7%&7.4%,20.4,0.732
COc1cc(C(=O)Nc2ccc(NC(=O)c3ccco3)nc2)cc(OC)c1OC,2.5,-1.4,3.0,0.8,21.5%,-3.8,0.704
O=C(NCCCSc1ccccc1)c1ccc(=O)[nH]c1,3.5,-4.7,2.1,0.9,-3.0%,-5.6,0.733
COc1cccc(-c2sc3ccccc3c2-c2ccc(OCCN3CCCCC3)cc2)c1,4.8,5.7,nt,0.1,nt,13.7,nt
COc1cc(C)ccc1OCC(=O)NCC1CCCO1 (stereo unspecified),-2.5,3.0,-0.8,0.4,-2.9%,-3.7,0.664
C=CCn1cnc2c(NCc3ccccc3)ncnc21,0.6,0.8,1.0,0.1,?,-6.1,0.752
Cc1ccc(C(C)C)c(OCCCNCc2cccnc2)c1,5.8,-4.9,6.3,0.2,11.3%,2.3,0.707
Cc1cc(Sc2nccn2C)ncc1[N+](=O)[O-],0.4,0.5,1.5,0.5,-15.0%,11.6,0.663
COc1cc(C(=O)OCC(=O)c2cc(C)n(C)c2C)cc(NC(=O)c2ccco2)c1OC,1.8,4.9,-55.0,-0.1,9.5%,10.9,0.704
Cc1cc(C)c(S(=O)(=O)N2CCCCC2)cc1N(C)S(=O)(=O)c1ccc(Cl)cc1,-0.6,-1.4,2.8,1.4,-11.3%&17.4%,-3.7,0.763
CCn1c(SCC(=O)Nc2cc(F)ccc2C)nnc1-c1ccccc1O,1.6,2.2,1.2,0.9,3.5%,-5.7,0.698
O=C(CCCCCn1c(=S)[nH]c2ccc(Br)cc2c1=O)NCC1CCCO1 (stereo unspecified),-2.1,-0.7,-0.9,?,-1.0%,-7.4,0.731
CCOCCCNC(=O)C(NC(=O)CNC(=O)c1ccccc1)c1ccc(OC)cc1 (stereo unspecified),-0.3,0.3,5.2,0.5,4.0%,0.8,0.644
COc1cc(NC(=O)Cc2cccc3ccccc23)c(C(=O)O)cc1OC,-1.3,-0.2,6.4,0.6,nt,5.3,0.731
Cc1cccc(C(=O)N2CCCC(N3CCN(c4ccc(F)cc4)CC3)C2)n1 (stereo unspecified),-0.9,3.4,0.6,-1.1,nt,3.3,0.677
Cc1ccc(NC(=O)Cn2nc(C)c3ccccc3c2=O)cc1F,-7.2,3.4,4.0,-0.8,-14.8%,-1.1,0.642
CCC(C)NCC(O)(c1ccc(Cl)cc1)c1ccc(Cl)cc1 (stereo unspecified),1.2,-0.2,1.7,0.7,-5.6%,-2.2,0.706
Cc1cc(NC(=O)CSCC(=O)Nc2cccc(S(=O)(=O)N3CCCCCC3)c2)no1,2.9,0.1,1.4,-0.6,-6.5%,32.7,0.727
C[C@H]1CCC[C@]2(O[C@@H](CCO)C[C@H](O)[C@H]2O)O1,0.5,-4.2,-0.2,0.2,nt,-11.0,nt
O=C(NC1CC2CCCC(C1)N2C(=S)Nc1ccccc1)C1CC1 (stereo unspecified),4.0,-1.6,-0.7,0.6,nt,7.2,0.656
COc1ccc(-c2nn[nH]n2)cc1OC,-4.0,2.9,2.1,-0.3,?,-3.6,0.746
CC1(C)CC2CC(C)(CN2C(=O)c2cc(-c3ccccc3)on2)C1 (stereo unspecified),3.5,-3.2,3.3,0.7,nt,-7.7,0.651
CCOCCCNC(=O)c1ccc2c(c1)ncn2-c1ccc(C)cc1C,4.7,-2.2,1.8,0.2,-3.9%,-4.2,0.715
COc1ccc(CNC(=O)C(CCSC)NC(=O)c2ccco2)cc1 (stereo unspecified),0.0,6.0,2.4,0.3,9.4%,-2.4,0.726
Cc1cc(C(=O)CSc2nnnn2C)c(C)n1C1CC1,0.1,1.5,-2.6,-2.4,29.7%,0.0,0.661
O=C(C1=C[C@@H](c2ccc(Br)cc2)C[C@@H](OCc2ccc(CO)cc2)O1)N1CCN(Cc2ccccc2)CC1,0.9,1.6,4.2,0.6,?,3.8,nt
Oc1ccccc1O,2.3,-3.4,3.1,0.4,nt,1.9,0.682
O=C(c1ccc2snnc2c1)N1CCN(c2ccccc2)CC1,1.9,1.1,2.3,0.5,-3.0%,4.9,0.659
CCN(CC(=O)Nc1ccc2c(c1)OCCO2)C(=O)c1ccc(S(=O)(=O)N(C)C)cc1,0.7,-0.9,1.9,0.7,7.7%,9.7,0.659
COc1cccc(C(=O)Nc2ccc3c(c2)C(=O)c2ccccc2C3=O)c1,-12.8,3.5,5.2,-1.5,nt,8.4,0.675
CCOc1ccc(/C=N/Nc2ccccn2)cc1,-0.4,-0.2,nt,-8.4,-9.8%,-4.9,nt
CCn1c(-c2cc(-c3ccccc3)sc2N)n[nH]c1=S,-3.5,3.1,-2.7,-0.1,-4.4%,-2.8,0.664
CCOC(=O)CN1C(=O)N(c2ccccc2OC)S(=O)(=O)c2ccccc21,-0.3,0.6,0.3,0.2,-0.1%,2.2,0.646
COC(=O)c1sccc1NC(=O)CN(C)NS(=O)(=O)c1ccc([N+](=O)[O-])cc1,-1.8,-3.2,6.3,-0.1,-0.5%,3.4,0.656
COc1ccc(C(=NN)c2ccc(OC)cc2)cc1,0.1,0.8,8.2,-0.4,nt,2.5,0.661
CC(=O)NC(=O)c1nnn(Cc2ccccc2)c1NC(C)=O,1.1,-2.7,5.4,-0.8,-3.3%,-9.0,0.697
CCOC(=O)c1c(NC(=O)C(NCCN(C)C)c2ccccc2)sc2c1CCCC2 (stereo unspecified),1.2,3.9,-1.8,-0.6,nt,9.7,0.635
Cc1onc(-c2ccccc2)c1C(=O)Nc1nnc(-c2ccncc2)s1,2.0,-5.0,-105.6,-0.2,7.2%,5.9,0.658
COc1ccc(C(O)Cc2nc3ccccc3n2C)cc1OC (stereo unspecified),-1.9,-0.1,-1.1,-0.5,15.8%,-4.7,0.695

# Later entries:
SMILES,HNF4A DNA FP,LANA-H2A inh,UCH37 inh,A1 inh,Vif A3G,B2AR ag,Ecoli growth
COc1cc2c(cc1OC)C(c1ccc(N(C)C)cc1)CC(=O)N2 (stereo unspecified),0.5,-0.7,2.5,0.3,?,-10.4,0.777
COCC(C)N1CC(O)=C(c2nc(-c3ccc(Cl)cc3)cs2)C1=N (stereo unspecified),2.8,2.9,1.3,0.4,-2.7%,2.4,0.672
Cc1cc2c(cc1S(=O)(=O)CCC(=O)N1CC(C)CC(C)C1)OCC(=O)N2 (stereo unspecified),-0.9,-0.7,1.6,0.2,nt,0.6,0.698
CC1CC2(CCCC2)Nc2ccc(F)cc21 (stereo unspecified),-1.1,-2.7,6.2,-0.3,-0.5%,-16.5,0.673
CC1(C)CC2CC(C)(CN2C(=O)COC(=O)CNC(=O)c2ccc(Cl)c(Cl)c2)C1 (stereo unspecified),0.3,-2.3,2.5,-0.5,nt,8.4,0.689
CCCn1c(C)cc(C(=O)COc2ccc(C)nc2[N+](=O)[O-])c1C,0.4,-5.5,1.4,0.4,nt,-17.7,0.712
CCN(CC)S(=O)(=O)c1ccc(C(=O)NNC(=O)C2CCN(S(=O)(=O)c3ccc(Cl)cc3)CC2)cc1,0.8,5.0,4.6,-0.5,21.5%,-1.9,0.691
CC(CC(=O)Nc1nc2ccccc2[nH]1)n1ccnc1 (stereo unspecified),2.6,2.2,1.5,0.7,6.5%,-7.0,0.694
CCC(=O)Nc1c(C)c(CC)nc2ccccc12,5.2,-1.1,2.7,0.3,-2.0%,-5.1,0.725
O=C(COc1ccccc1C(=O)Nc1ccccc1)c1ccc(Br)cc1,3.9,1.5,2.6,0.3,2.4%,-3.3,0.752

# Screening results deposited in PubChem BioAssay by several laboratories.
